Assay outcomes (PubChem)
TRPML1 blocker: human mucolipin-1 channel inhibition. Q9GZU1. TRPML1-inducible cells, Ca2+ dye fluorescence, FDSS; hits give low values; inhibition of EC80 agonist-evoked calcium signal. activity change, negative = inhibition, % (no concentration beside the values). hit rate 0.02% among 390,000; in the data active means activity change below about -50%; inconclusive means about -30% to -50%; inactive means above about -30%;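 further: stimulus is agonist 54-4 at its EC80 concentration; on the % scale 0 is the no-effect control and ±100 the full control effect; compound concentration not given in the record; the text of the record puts the active cut at -80%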
Target sequence (Q9GZU1 whole entry, looked up): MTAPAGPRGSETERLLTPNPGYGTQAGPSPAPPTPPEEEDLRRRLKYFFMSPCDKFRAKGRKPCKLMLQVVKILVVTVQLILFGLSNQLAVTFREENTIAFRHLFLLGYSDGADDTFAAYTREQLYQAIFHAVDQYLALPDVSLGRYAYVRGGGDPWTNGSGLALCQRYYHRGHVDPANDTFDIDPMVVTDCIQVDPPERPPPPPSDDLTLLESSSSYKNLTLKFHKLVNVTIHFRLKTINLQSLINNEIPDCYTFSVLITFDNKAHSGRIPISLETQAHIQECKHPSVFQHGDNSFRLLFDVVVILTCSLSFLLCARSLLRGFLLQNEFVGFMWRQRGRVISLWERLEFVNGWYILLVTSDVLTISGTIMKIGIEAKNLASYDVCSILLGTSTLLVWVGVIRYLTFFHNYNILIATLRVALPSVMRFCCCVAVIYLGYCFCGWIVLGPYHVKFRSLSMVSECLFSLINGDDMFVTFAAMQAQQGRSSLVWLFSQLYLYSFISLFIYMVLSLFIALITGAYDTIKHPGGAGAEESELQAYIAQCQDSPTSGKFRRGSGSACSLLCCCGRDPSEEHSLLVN
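TRPML1-DL cells, Tet-induced overnight (~16 h, 37 °C) at 1,500 cells/well, were loaded with Ca8 no-wash dye plus quencher for 45-90 min at room temperature. Compounds were pinned during FDSS kinetic reading; agonist 54-4 at EC80 (4 uM final) then added.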
Menin-MLL FL inh: menin-MLL binding inhibition, fluorescein peptide; AID 1766; 290,000 tested, under 10 active; FP activity change, % at 61.4 µM; Fluorescence polarization, fluorescein-MLL peptide displacement from menin; inconclusive = falling polarisation curve, or a change in total fluorescence; inactive = total fluorescence flat and polarisation flat or rising; no compound was filed as active; the % refers to the polarisation; negative = inhibition;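 further: % of control where 0% means no effect; inhibitors lower the polarisation; unlabelled MLL peptide was the positive control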
ClpP mod: qHTS Assay for Activators of ClpP; ATP-dependent Clp protease proteolytic subunit (Bacillus subtilis (strain 168)), P80244; purified B. subtilis ClpP, FRET peptide cleavage, 20 min; Potency, µM (doses to about 57.5 µM), for inactives: top-dose activity change, negative = active; hit rate 1.9% among 340,000; AID 651965, 2013; active = well fitted falling curve with a large enough effect; inconclusive = small, poorly fitted or top-dose-only effect; inactive = no such curve, though single readings can be large or run the other way; further: potency means the concentration at half of the fitted maximal effect; the source files actives as falling curves though it sought activators and does not explain the sign; nearly all actives have a fitted effect of over 65% in size; many hits overshoot -100%
Target sequence (P80244 whole entry, looked up): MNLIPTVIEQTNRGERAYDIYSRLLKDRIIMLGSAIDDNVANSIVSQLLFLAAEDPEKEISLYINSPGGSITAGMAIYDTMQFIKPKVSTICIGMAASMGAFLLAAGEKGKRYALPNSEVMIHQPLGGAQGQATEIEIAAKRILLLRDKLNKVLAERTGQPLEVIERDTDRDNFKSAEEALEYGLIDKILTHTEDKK
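FRET quenching reversal measured ClpP activation: 10 microg/mL B. subtilis ClpP at pH 8 with the FRET-FV decapeptide, read at 430 nm after 320 nm excitation. The 20-min minus 0-min signal was scaled between DMSO/no-enzyme wells and ADEP (5.8 microM final).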
gsp ag: gsp mutant agonism; gsp mutant cells, cAMP HTRF, 30 min; control for the full effect not named in the record; Potency, µM (titrated, usually from 76.9 µM), for the others: at the highest dose activation (cAMP increase), most hits filed as activators; hit rate 0.13% among 340,000; AID 624287; active = well fitted activation curve with a large enough effect; inconclusive = small, poorly fitted or top-dose-only effect, or another doubt; inactive = no such curve, though single readings can be large or run the other way; cell line not stated here;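 further: phosphodiesterase inhibitor Ro 20-1724 added with compounds to block cAMP breakdown; potency means the concentration at half of the fitted maximal effect; nearly all actives have a fitted effect of over 60% in size; about a fifth of the inactives were tested at one dose only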
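Cells stably selected in G418 were plated at 2000/well, grown 16-24 hr, then given compounds in DMSO with the PDE inhibitor […] (300 uM solution added) for 30 min at 37C; cAMP was read by HTRF.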
TRPV1 potentiator: human TRPV1 potentiation | Q8NER1 | TRPV1-expressing cells, Fluo-8 calcium influx, capsaicin EC20 potentiation; host cell line not named in the record; control for the full effect not named in the record | potentiation, % at 8.33 µM | hit rate 0.02% among 320,000 | AID 540277; active means potentiation above 80%; inconclusive means 30% to 80%; inactive means below 30%; further: 0% is about no effect
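TRPV1-expressing cells were cultured overnight at 35.5C and loaded with Fluo-8 calcium dye for 40 to 90 min at room temperature. After a 10 s baseline, compound was added and calcium influx was read kinetically for 3 min (ex 480/em 520 nm).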
Sfp inh: blocks B. subtilis Sfp PPTase activity; hit rate 3.5% among 310,000; AID 1490; Potency, µM, without a hit: max response, negative = inhibition, usual class: inhibitors; Q9F4F7; Biochemical Sfp PPTase activity, qHTS; active means well fitted inhibition curve with a large enough effect; inconclusive means small, poorly fitted or top-dose-only effect, or another doubt; inactive means no such curve, though single readings can be large or run the other way;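 further: the enzyme is Sfp with the accession as filed and its product quenches rhodamine fluorescence; potency means the concentration at half of the fitted maximal effect; 0% = enzyme reaction without inhibitor and -100% = no enzyme wells; top concentration of the series not given in the record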
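Reaction rates are the 30-min fluorescence difference (ex 525, em 598 nm) in wells containing 15 nM Sfp, 5 uM rhodamine-CoA and 12.5 uM BHQ-2-YbbR at pH 7.6 with 10 mM MgCl2.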
gsp antag: antagonizes gsp, the McCune-Albright syndrome mutation; gsp-mutant cells, cAMP HTRF, 30 min; control for the full effect not named in the record; Potency, µM (top dose mostly 76.9 µM), inactives show at the top dose activity change, negative = inhibition, hits mostly inhibitors; hit rate 0.4% among 340,000; active = falling curve of any shape with a large fitted effect; inconclusive = falling curve, mostly with a smaller effect; inactive = flat or rising curve; cell line not stated here;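 further: intracellular cAMP measured with PDE inhibitor Ro 20-1724 present during compound exposure; potency means the concentration at half of the fitted maximal effect; on the % scale 0 is the no-effect control and ±100 the full control effect; nearly all actives have a fitted effect of over 65% in size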
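Cells, 2000/well, grown 16–24 h in DMEM 10% FBS with 0.5 mg/ml G418, then compounds plus […] (300 uM addition stock), 30 min at 37C. cAMP read by HTRF (cAMP-d2 and anti-cAMP antibody-K in lysis buffer) after 30 min RT.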
Active calls of the source: *; ? = inconclusive; · = no result given; [ ] = dose if it differs, or a comment.

| molecule | TRPML1 blocker | Menin-MLL FL inh | ClpP mod | gsp ag | TRPV1 potentiator | Sfp inh | gsp antag |
| --- | --- | --- | --- | --- | --- | --- | --- |
| Fc1ccc(NC(=S)N/N=C/c2ccc(F)c(F)c2)cc1 | 18 | -7.1 | · | -9%[15.4 µM] | -11 | 25% | -7% |
| Cc1ccc(-c2nnn(CC(=O)N(Cc3cccs3)C(C(=O)NC3CCCC3)c3ccncc3)n2)cc1 (configuration not stated) | 6 | 5.8 | -1.3% | 1% | 18 | -9% | 0% |
| Cc1ccc(C(=O)N2CC3(C)CN(C(=O)c4ccc(C)cc4)CC(C)(C2)C3=O)cc1 | 15 | -12 | -1.7% | -7% | -1 | 4% | 8% |
| O=C(CCN1C(=O)/C(=C\c2ccccc2)SC1=S)N1CCOCC1 | -5 | -0.2 | · | 1%[15.4 µM] | -25 | 10% | -7% |
| CCOc1cc(C2C(C(=O)c3ccco3)=C(O)C(=O)N2Cc2ccccc2)ccc1O (configuration not stated) | 1 | · | · | ? | -3 | 2% | -1% |
| CCN(CC)CCN(Cc1cc2cc3c(cc2[nH]c1=O)OCCO3)C(=S)NCCCN(C)C | -12 | -0.9 | 4.3% | 20% | ? | 26% | 7% |
| C=CCn1c(=O)c2ccc(C(=O)NCc3ccccc3)cc2n(Cc2cccc(Cl)c2)c1=O | 26 | 0.0 | 28µM* | ? | 17 | ? | -6% |
| C=CCNC(=S)NCC | 20 | 0.6 | -2.1% | 8% | 7 | ? | 10% |

Part of the list above in order of molecular weight, ascending:
| molecule | TRPML1 blocker | Menin-MLL FL inh | ClpP mod | gsp ag | TRPV1 potentiator | Sfp inh | gsp antag |
| --- | --- | --- | --- | --- | --- | --- | --- |
| C=CCNC(=S)NCC | 20 | 0.6 | -2.1% | 8% | 7 | ? | 10% |
| Fc1ccc(NC(=S)N/N=C/c2ccc(F)c(F)c2)cc1 | 18 | -7.1 | · | -9%[15.4 µM] | -11 | 25% | -7% |
| C=CCn1c(=O)c2ccc(C(=O)NCc3ccccc3)cc2n(Cc2cccc(Cl)c2)c1=O | 26 | 0.0 | 28µM* | ? | 17 | ? | -6% |
| CCN(CC)CCN(Cc1cc2cc3c(cc2[nH]c1=O)OCCO3)C(=S)NCCCN(C)C | -12 | -0.9 | 4.3% | 20% | ? | 26% | 7% |

Reprinted at random: 4 records from the list.
| molecule | TRPML1 blocker | Menin-MLL FL inh | ClpP mod | gsp ag | TRPV1 potentiator | Sfp inh | gsp antag |
| --- | --- | --- | --- | --- | --- | --- | --- |
| C=CCn1c(=O)c2ccc(C(=O)NCc3ccccc3)cc2n(Cc2cccc(Cl)c2)c1=O | 26 | 0.0 | 28µM* | ? | 17 | ? | -6% |
| C=CCNC(=S)NCC | 20 | 0.6 | -2.1% | 8% | 7 | ? | 10% |
| O=C(CCN1C(=O)/C(=C\c2ccccc2)SC1=S)N1CCOCC1 | -5 | -0.2 | · | 1%[15.4 µM] | -25 | 10% | -7% |
| Fc1ccc(NC(=S)N/N=C/c2ccc(F)c(F)c2)cc1 | 18 | -7.1 | · | -9%[15.4 µM] | -11 | 25% | -7% |

Carrying on.
| molecule | TRPML1 blocker | Menin-MLL FL inh | ClpP mod | gsp ag | TRPV1 potentiator | Sfp inh | gsp antag |
| --- | --- | --- | --- | --- | --- | --- | --- |
| Cc1ccc(S(=O)(=O)NC2CC(C)(C)N(O)C(C)(C)C2)cc1 | -10 | · | 1.2% | 22% | -20 | · | 0% |
| Cc1ccc(OCCC(=O)N2CCN(c3ccc(O)cc3)CC2)cc1 | -14 | 5.8 | · | 20% | -22 | 56µM* | -4% |
| C=CCn1c(O)c(N=O)c2ccccc21 | -3 | 2.6 | -2.0% | ? | -7 | 7% | -4% |
| Cc1ccccc1-c1nnc(CN2CCN(C(=O)c3ccco3)CC2)o1 | 29 | -9.1 | · | -34%[inhibitor] | 21 | 7% | -1% |
| COC(=O)C1=C(N)Oc2cc(C)n(Cc3ccccc3)c(=O)c2C1c1ccccc1 (configuration not stated) | 1 | 6.0 | -3.0% | 25% | 8 | -5% | -14% |
| CCOc1ccc(Oc2ccc(Cl)cc2N)cc1 | -11 | -2.7 | 0.2% | -19% | 0 | 5% | 3% |
| COc1cccc(NC(=O)Cn2c(=O)n(CCCC(=O)NCc3ccco3)c(=O)c3ccccc32)c1 | 40 | 0.3 | -4.7% | 7% | 6 | -16% | -1% |
| O=[N+]([O-])c1ccc(/C=N/Nc2nc3ccccc3o2)cc1 | 5 | 6.1 | -0.1% | ? | -7 | 8% | 18% |

Next compounds:
| molecule | TRPML1 blocker | Menin-MLL FL inh | ClpP mod | gsp ag | TRPV1 potentiator | Sfp inh | gsp antag |
| --- | --- | --- | --- | --- | --- | --- | --- |
| CCNC(=O)NC(=O)CSc1ccc(NC(C)=O)cc1 | 23 | 2.8 | 1.0% | 15% | -1 | 3% | 13% |
| CS(=O)(=O)N(CC(=O)N1CCc2ccccc2C1)Cc1ccccc1 | 5 | -3.4 | -0.6% | -19% | ? | 8% | -3% |
| O=C(COC(=O)c1ccccc1)Nc1cccc(S(=O)(=O)NC2=NCCCCC2)c1 | -17 | 3.8 | 3.4% | 18% | 4 | 5% | 17% |
| Cc1cc(C)c(S(=O)(=O)N(C2=NCCS2)S(=O)(=O)c2c(C)cc(C)cc2C)c(C)c1 | 1 | -0.2 | 0.6% | -24% | 3 | 24% | -4% |
| O=[N+]([O-])c1ccccc1OCCCNCc1ccccc1 | -3 | -3.6 | · | 19%[15.4 µM] | -6 | -6% | 6% |
| CCC(=O)N1CCc2cc(S(=O)(=O)CCC(=O)Nc3ccc(C)c(F)c3)ccc21 | -5 | -0.9 | -3.2% | 1% | 0 | 12% | -15% |
| CS(=O)(=O)c1sc2nc(-c3ccccc3)cc(-c3ccccc3)c2c1N | 9 | 11 | -28% | 7.1µM* | 29 | ? | 1% |
| CC(=O)N1CCC2(CC1)C(C#N)=C(N)Oc1n[nH]c(CSc3ccc(C)cc3)c12 | 6 | 0.9 | -0.4% | -34% | 8 | 13% | 4% |

More results follow:
| molecule | TRPML1 blocker | Menin-MLL FL inh | ClpP mod | gsp ag | TRPV1 potentiator | Sfp inh | gsp antag |
| --- | --- | --- | --- | --- | --- | --- | --- |
| COc1ccc(N2CCN(c3nc4ccccc4nc3NS(=O)(=O)c3ccccc3)CC2)cc1 | 1 | 4.8 | -2.7% | -5% | 6 | 11% | -5% |
| O=C1CC(c2cccs2)Sc2nc3ccccc3n21 (configuration not stated) | 5 | 0.1 | 0.6% | -34%[inhibitor] | 8 | -2% | -20% |
| O=C(Cn1cncn1)NCc1cc(F)ccc1F | ? | 0.2 | -1.9% | -16% | 2 | 16% | 3% |
| O=C(c1ccc(-n2ccnc2)cc1)N1CCCC(CO)(Cc2cccc(Cl)c2)C1 (configuration not stated) | -13 | -0.3 | 1.4% | -27% | 0 | 10% | 3% |
| Cc1cc2oc(C(=O)N(Cc3ccccc3)C3CCS(=O)(=O)C3)c(C)c2cc1C (configuration not stated) | -3 | 0.9 | -4.4% | -7%[15.4 µM] | -10 | -1% | -29% |
| O=C(CSc1ncc(-c2ccc(F)cc2)[nH]1)Nc1cccc(O)c1 | 1 | 0.1 | -0.6% | -8% | 7 | 0% | 0% |
| COc1ccc(OC)c(NC(=O)NNC(=O)COc2ccc([N+](=O)[O-])cc2)c1 | -7 | -2.2 | -7.8% | -5% | 0 | 12% | 4% |
| O=C(Cn1nnc(-c2ccccc2)n1)N1CCN(c2ccc(F)cc2)CC1 | 0 | -0.7 | -1.2% | -14%[15.4 µM] | -18 | 19% | 11% |
| O=c1nc(/C=C/c2ccc(-c3ccc(F)cc3)o2)cc(C(F)(F)F)[nH]1 | · | ? | · | · | 4 | 4% | · |

Single records, from the list above:
Record of O=[N+]([O-])c1ccccc1OCCCNCc1ccccc1 = TRPML1 blocker = -3; Menin-MLL FL inh = -3.6; ClpP mod = ·; gsp ag = 19%[15.4 µM]; TRPV1 potentiator = -6; Sfp inh = -6%; gsp antag = 6%
Record of Cc1ccc(-c2nnn(CC(=O)N(Cc3cccs3)C(C(=O)NC3CCCC3)c3ccncc3)n2)cc1 (configuration not stated) = TRPML1 blocker = 6; Menin-MLL FL inh = 5.8; ClpP mod = -1.3%; gsp ag = 1%; TRPV1 potentiator = 18; Sfp inh = -9%; gsp antag = 0%
